HNF4A DNA FP: change in binding of human HNF4A to DNA, primary screen, biochemical, fluorescence polarization, FITC-DNA; 1 h; activity change, % at 10 µM; 360,000 compounds, 0.3% hits; in the data active = activity change above about 30%, passing the limit was not always enough;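 also: controls were the assay level and a saturating level of protein; the project sought stronger binding though the title names inhibitors; some compounds called inactive have numbers as strong as hits; positive values seem to mean higher polarization but the record does not say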
ALR inh: inhibitors of human ALR sulfhydryl oxidase, primary screen, biochemical, H2O2 detection, HRP-luminol luminescence, single point. inhibition, % (no concentration beside the values). 290,000 compounds, 3.8% hits. purified ALR, DTT oxidation. FAD-linked sulfhydryl oxidase ALR (Homo sapiens), P55789;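 active = mean and each replicate at 75% or more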;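 also: stock transfer was 7.5 nL into about 7.5 µL; 0% = neutral wells and 100% = wells with inactivated enzyme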
Target sequence (P55789 whole entry, looked up): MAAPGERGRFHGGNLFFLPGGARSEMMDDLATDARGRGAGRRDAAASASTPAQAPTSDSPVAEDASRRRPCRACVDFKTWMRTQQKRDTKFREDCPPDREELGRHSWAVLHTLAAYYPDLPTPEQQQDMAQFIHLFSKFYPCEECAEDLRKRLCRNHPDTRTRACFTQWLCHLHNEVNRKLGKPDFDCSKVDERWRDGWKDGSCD
FGF22 binding: binders of human FGF22 protein, primary screen, FGF22 synaptogenesis inhibitor project, biophysical, thermal shift, single point; calls only at 9.99 µM; recombinant FGF22 thermal shift, SYPRO orange fluorescence; percent of sucrose octasulfate shift, DMSO zero; 340,000 compounds, 1.5% hits; Fibroblast growth factor 22 (Homo sapiens), Q9HCT0;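 active = melting point raised past a set limit in the mean and every replicate; three in four hits are not shown here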
Target sequence (Q9HCT0 whole entry, looked up): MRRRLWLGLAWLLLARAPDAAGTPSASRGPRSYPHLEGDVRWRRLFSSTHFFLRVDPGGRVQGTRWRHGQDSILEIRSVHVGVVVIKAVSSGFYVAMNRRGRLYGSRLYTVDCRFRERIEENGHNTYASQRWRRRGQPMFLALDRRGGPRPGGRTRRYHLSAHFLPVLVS
E coli growth: E. coli growth inhibition, primary screen, OD600 | Escherichia coli growth, 23 h; active compounds read low | OD600 absorbance (concentration not given with the values) | 330,000 compounds, 0.21% hits;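 active = OD600 absorbance below the run mean of sample wells minus 3.6 SD, in any replicate, cut at about 0.56 in these data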;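 also: stock transfer was 300 nL into about 60 µL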
Ecoli rRNA inh: reduced GFP signal of wild-type E. coli, primary screen, bacterial rRNA inhibitor project, GFP/RFP fluorescence, OD600, single point | E. coli WT GFP vs humanized-ribosome RFP mutants, 24 h; active compounds read low; DMSO median 0, no signal -100 | GFP signal change (wild-type ribosome), % (no concentration beside the values) | 350,000 compounds, 1.6% hits;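 active = significant combined selectivity score with lowered wild-type GFP, culture density cut under 30%, mutant RFP and density less affected; inactive = any of these conditions unmet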; also: one replicate is shown; some compounds called inactive have numbers as strong as hits
Vif TR-FRET: inhibitors of Vif binding to APOBEC3G peptide, primary screen, biochemical, TR-FRET, GST-Vif 1-94, biotin-A3G peptide, dose response retest (AID 1117319); TR-FRET GST-Vif / biotin-A3G peptide binding; higher % means a stronger effect; test concentration not given here; strong numbers were not always called active; 260,000 compounds, 0.57% hits; inhibition, %; hits with a dose series show IC50 in µM; Virion infectivity factor (Human immunodeficiency virus type 1 group M subtype B (isolate …;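 active = above the screen mean plus three standard deviations and confirmed in dose response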;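 also: Vif residues 1-94 fused to GST binding biotinylated APOBEC3G peptide 110-148; 0% = full assay without inhibitor and 100% = GST in place of GST-Vif; retest series ran down from 100 µM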
MLL AF4-AF9 inh: inhibitors of AF4 peptide binding to AF9, primary screen, biochemical, AlphaScreen, biotin-AF4 peptide, FLAG-AF9, single point; Protein AF-9 (Homo sapiens), P42568; inhibition, % at 10 µM; 350,000 compounds, 0.47% hits;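 active = every replicate reaching a set inhibition limit, whatever the replicate mean, cut at about 25% in these data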;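 also: 0% = plate neutral control median and 100% = total signal loss; the record names both 10 and 1 µM as test concentration; the first replicate is given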
Target sequence (P42568 whole entry, looked up): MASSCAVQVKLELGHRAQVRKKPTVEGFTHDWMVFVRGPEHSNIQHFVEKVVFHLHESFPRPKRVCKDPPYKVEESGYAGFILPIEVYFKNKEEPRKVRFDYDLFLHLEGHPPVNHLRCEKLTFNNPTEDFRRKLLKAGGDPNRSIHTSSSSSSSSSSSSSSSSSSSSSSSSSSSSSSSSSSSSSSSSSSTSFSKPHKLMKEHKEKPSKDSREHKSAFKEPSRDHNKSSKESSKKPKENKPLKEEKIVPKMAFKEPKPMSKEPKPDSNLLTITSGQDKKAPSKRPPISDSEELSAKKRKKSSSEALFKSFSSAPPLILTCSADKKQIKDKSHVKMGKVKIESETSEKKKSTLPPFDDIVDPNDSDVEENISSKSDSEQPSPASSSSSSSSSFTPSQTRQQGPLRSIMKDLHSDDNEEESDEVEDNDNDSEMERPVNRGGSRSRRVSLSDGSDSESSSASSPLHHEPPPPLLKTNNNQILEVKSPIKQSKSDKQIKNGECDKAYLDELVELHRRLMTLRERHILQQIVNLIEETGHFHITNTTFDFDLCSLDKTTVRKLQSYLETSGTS
Ecoli rRNA inh OD600: further read-out of Ecoli rRNA inh, marked with its call; OD600 change, %; measured here: OD600 growth;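 optical density of the mix in the first replicate; 0 = DMSO median and -100 = no signal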
Ecoli rRNA inh RFP: second read-out of Ecoli rRNA inh, no call of its own (marks repeat the call); RFP signal change, %; measured here: RFP humanized mutant strains;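 first replicate; 0 = DMSO median and -100 = no signal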
The depositor's hits bear a star; i = inactive; . = not tested or not shown; & = joins results of further samples.

SMILES	HNF4A DNA FP	ALR inh	FGF22 binding	E coli growth	Ecoli rRNA inh	Ecoli rRNA inh OD600	Ecoli rRNA inh RFP	Vif TR-FRET	MLL AF4-AF9 inh
COc1ccccc1NC(=S)N1CCN(C/C=C/c2ccccc2)CC1	-0.9	-6	i	.	-6	2	-2.0	-3%	2.4
COc1ccccc1-c1ccc2c(c1)C(C)(Cc1ccc(OC(F)(F)F)cc1)C(=O)N2 (centres undefined)	-0.9	.	i	.	.	.	.	.	-0.3
Cn1cc(S(=O)(=O)N2CCNCC2)cc1C(N)=O	-0.8	-6	i	0.68	.	.	.	.	-0.8
Cc1cc(C)c2[nH]c(O)c(N=NC3=NC(=O)CS3)c2c1	0.4	.	i	0.7	-3	-2	1.3	23%	-6.5
O=C(/C=C/c1cc([N+](=O)[O-])ccc1OC(F)F)Nc1ccc(OC(F)F)cc1	-1.3	-4	i	0.64	0	3	-2.3	.	0.6
CN(C)C(CNC(=O)c1c(F)cccc1Cl)c1ccco1 (centres undefined)	-0.9	-5	.	0.68	9	12	0.2	.	-1.2
CC(=O)Nc1ccc(NC(=O)CSc2ccc(-c3ccc(-n4ccnc4)cc3)nn2)cc1	4.0	54	i	0.64	1	-3	8.2	.	-32
COc1ccc(C(=O)NC2CCN(CC(=O)Nc3cccc(OC)c3)CC2)cc1	-2.0	.	i	0.69	13	14	0.6	.	-2.3
COc1ccccc1C(=O)NCCNC(=O)c1ccco1	2.4	0	.	0.73	.	.	.	18%	.
Oc1cccc(/C=N/Nc2ccc(Cl)nn2)c1	-1.2	.	i	.	2	8	-2.0	-8%	5.3
O=C(CSc1nnc(C2CC2)n1CC1CCCO1)Nc1ccc(Cl)cc1 (centres undefined)	0.3	-4	i	0.71	-2	-1	-0.6	-4%	0.2
Cc1cc2ccccc2c(=O)n1CC(=O)Nc1ccc2c(c1)OCO2	-1.0	17	.	0.66	.	.	.	27%	.
C/C(=C/c1ccccc1)C(=O)N1CCC(C)CC1	-3.4	-3	i	0.7	-1	3	-2.5	.	-1.0
Cn1c(=O)[nH]c(Nc2ccc(F)cc2)c([N+](=O)[O-])c1=O	2.5	5	.	0.7	.	.	.	-2%	.
COc1ccc(N2CC(C(=O)NC3=NCCS3)CC2=O)cc1 (centres undefined)	-1.3	-5	i	0.7	14	2	-5.3	.	-5.0
Cc1ccc(S(=O)(=O)N(C)C[C@H]2Oc3ccc(NS(=O)(=O)c4ccc(F)cc4)cc3CC(=O)N([C@H](C)CO)C[C@H]2C)cc1	.	.	i	.	5	2	4.2	.	-1.2
COc1cc(-c2noc(C)c2C#Cc2ccc(N)cc2)cc(OC)c1OC	2.7	-2	i	0.68	-5	-3	8.3	.	5.4
C[C@@H]1CCCCO[C@@H](CN(C)S(=O)(=O)c2ccc(F)cc2)[C@@H](C)CN([C@@H](C)CO)C(=O)c2cc(NS(=O)(=O)c3cn(C)cn3)ccc2O1	.	.	i	.	-1	2	-0.3	.	-4.0
COc1ccc(C#Cc2cnc3c(c2)C(=O)N([C@H](C)CO)C[C@@H](C)[C@H](CN(C)C(=O)c2ccccc2F)O3)cc1	.	.	i	.	-2	7	2.7	.	-1.9
O=C1NCCOC(=O)[C@H](Cc2ccc(F)cc2)CC/C=C/C[C@@H]1CC(=O)N(CCO)Cc1ccccc1	-1.0	0	i	.	-28	-20	17	.	0.1
COc1ccc(F)c(CN2CCC(n3nccc3NC(=O)C3CCOC3)CC2)c1 (centres undefined)	2.3	-1	i	.	23	15	3.7	.	3.4
C[C@@H]1CCCCO[C@@H](CN(C)S(C)(=O)=O)[C@@H](C)CN([C@H](C)CO)C(=O)c2cc(N(C)C)ccc2O1	3.9	.	i	.	1&3	8&5	3.3&0.0	3%	-1.2&-3.2&-3.7
COc1ccc(OC)c(NC(=O)Cc2coc3ccc4ccccc4c23)c1	-0.5	-6	.	0.69	.	.	.	4%	.
Cc1nn(Cc2ccc(Cl)cc2Cl)c(C)c1NC(=O)c1nn(C)cc1Cl	0.2	12	.	0.71	.	.	.	-3%	.
COc1cccc(C(=O)N2CCC[C@@H]2C(=O)N2CCC[C@@H]2C(=O)NCc2ccccc2Cl)c1	1.6	.	i	.	-6	-2	-0.2	.	0.9
SMILES	HNF4A DNA FP	ALR inh	FGF22 binding	E coli growth	Ecoli rRNA inh	Ecoli rRNA inh OD600	Ecoli rRNA inh RFP	Vif TR-FRET	MLL AF4-AF9 inh
CCN(CC(=O)Nc1ccccc1C(F)(F)F)CC(=O)c1[nH]c(C)c(C(C)=O)c1C	-0.3	.	i	.	.	.	.	3%	1.5
Cc1ccc(S(=O)(=O)N[C@H]2C=C[C@H](CC(=O)NCCN3CCCCC3)O[C@H]2CO)cc1	.	.	i	.	0	0	-2.0	.	1.4
Cc1cc(/C=C2/SC(=O)N(CC(=O)OC(C)C)C2=O)c(C)n1C	6.5	-12	i	0.67	-9	-6	-0.7	3%	20
COc1ccc(S(=O)(=O)Nc2ccc3c(c2)CC(=O)N([C@H](C)CO)C[C@H](C)[C@@H](CN(C)S(=O)(=O)c2ccc(Cl)cc2)O3)cc1	.	.	i	.	-2	2	2.3	.	3.2
O=C(Nc1ccc2c(c1)OCO2)N1CCN(c2ncccn2)CC1	4.9	-17	i	0.72	3	17	-0.4	1%	0.1
CCC(C)NCCOCCOc1ccc(Br)cc1 (centres undefined)	-4.4	-4	i	.	11	5	4.9	-5%	-1.5
COC(=O)CSc1nc(C)cc(N2CCOCC2)n1	1.0	-6	i	0.69	-1	11	1.0	-1%	0.4
O=C(O)c1oc2ccccc2c1CSCc1ccccc1	2.4	13	.	0.69	-18	-26	-2.0	1%	-2.1
COc1ccc(CNC(=O)[C@@H](NC(=O)C2CCN(C(=O)[C@@H](N)Cc3ccccc3)CC2)C(C)C)cc1	1.1	1	i	0.7	.	.	.	.	-1.6
O=C(N[C@H]1CC[C@@H](CCNS(=O)(=O)c2ccc(Cl)cc2)O[C@H]1CO)c1cccc(F)c1	.	.	i	.	-3	7	-1.2	.	-1.5
Cc1cccc(C)c1OCc1cc(C(=O)N(C)CCc2ccccn2)no1	-2.3	-1	i	0.69	.	.	.	-5%	-0.1
O=C(NCCCN1CCCCC1)C1CCN(S(=O)(=O)N2CCC3(CC2)OCCO3)CC1	8.0	2	i	0.66	10	-7	10	.	-0.4
Cc1ccc(C(=O)NCC(=O)OCC(=O)c2ccc3c(c2)NC(=O)CO3)cc1	2.5	1	.	0.71	15	7	3.6	-10%	-6.4
CCOC(=O)N1N=C(c2ccccc2)CC1(O)C(C)(F)F (centres undefined)	2.5	-13	i	0.66	7	4	-1.4	-5%	7.0
CC(C)(C)NC(=O)C(=O)NNC(=O)c1cccc(Br)c1	-3.8	3	i	0.69	-11	-23	5.1	10%	0.4
CCOc1ccc(C(=O)NCC(c2ccco2)N2CCc3ccccc3C2)cc1 (centres undefined)	-2.3	-7	i	0.66	-12	-20	0.7	-4%	-0.2
O=C(COc1ccccc1)NCc1n[nH]c(=S)n1-c1ccccc1	-5.3	33	i	0.68	25	17	0.0	0%	-4.8
COc1ccc(O)c(CN2CCCC(N3CCN(c4ccccc4OC)CC3)C2)c1 (centres undefined)	5.1	.	i	0.69	5	5	1.7	.	7.9
CC(=O)N1CCCc2cc(S(=O)(=O)N3CCCC(C(=O)Nc4ccccc4C)C3)ccc21 (centres undefined)	11	0	i	0.67	10	4	0.7	5%	0.4
CC(C(=O)N(C)C1CCS(=O)(=O)C1)N1C(=O)/C(=C/c2cccs2)SC1=S (centres undefined)	1.9	0	i	0.68	-14	-14	-1.0	.	3.7
O=C(NC1CCCC1)C(c1ccccc1)N(Cc1ccco1)C(=O)Cc1cccs1 (centres undefined)	-0.8	1	.	0.76	.	.	.	8%	.
CO[C@H]1CN(C)C(=O)c2ccc(NC(=O)c3ccno3)cc2OC[C@H](C)N(S(C)(=O)=O)C[C@@H]1C	.	.	i	.	1	9	-1.1	.	-6.9
O=C(NNc1nc(-c2ccc(Cl)cc2)cs1)c1ccco1	1.3	-1	.	0.61	.	.	.	3%	.
COc1ccccc1-c1nnc(SCC(=O)c2ccc(C3CCCCC3)cc2)n1Cc1ccco1	1.1	-15	.	0.73	.	.	.	2%	.
C[C@H]1CN([C@@H](C)CO)C(=O)Cc2cc(N(C)C)ccc2O[C@@H]1CN(C)C(=O)Nc1ccccc1	.	.	i	.	7	1	1.7	.	-1.7

Part of the list above in order of count of non-hydrogen atoms, ascending:
SMILES	HNF4A DNA FP	ALR inh	FGF22 binding	E coli growth	Ecoli rRNA inh	Ecoli rRNA inh OD600	Ecoli rRNA inh RFP	Vif TR-FRET	MLL AF4-AF9 inh
COC(=O)CSc1nc(C)cc(N2CCOCC2)n1	1.0	-6	i	0.69	-1	11	1.0	-1%	0.4
O=C(NNc1nc(-c2ccc(Cl)cc2)cs1)c1ccco1	1.3	-1	.	0.61	.	.	.	3%	.
CC(C(=O)N(C)C1CCS(=O)(=O)C1)N1C(=O)/C(=C/c2cccs2)SC1=S (centres undefined)	1.9	0	i	0.68	-14	-14	-1.0	.	3.7
Cc1cccc(C)c1OCc1cc(C(=O)N(C)CCc2ccccn2)no1	-2.3	-1	i	0.69	.	.	.	-5%	-0.1
O=C(NC1CCCC1)C(c1ccccc1)N(Cc1ccco1)C(=O)Cc1cccs1 (centres undefined)	-0.8	1	.	0.76	.	.	.	8%	.
COc1ccccc1-c1nnc(SCC(=O)c2ccc(C3CCCCC3)cc2)n1Cc1ccco1	1.1	-15	.	0.73	.	.	.	2%	.

The list continues:
SMILES	HNF4A DNA FP	ALR inh	FGF22 binding	E coli growth	Ecoli rRNA inh	Ecoli rRNA inh OD600	Ecoli rRNA inh RFP	Vif TR-FRET	MLL AF4-AF9 inh
Cc1cc2c(cc1C)NC(CC(=O)NCc1ccccc1)C(=O)N2 (centres undefined)	21	17	i	0.69	-9	1	7.6	26%	1.4
CCOC(=O)CSc1nnc(CNC(=O)c2ccc(OC)cc2OC)n1-c1ccc(OC)cc1	-4.6	.	.	0.67	.	.	.	4%	.
O=C(N[C@@H](Cc1ccccc1)C(=O)NC1CCCCC1)c1ccco1	1.0	-2	.	0.65	.	.	.	10%	.
C[C@H](CO)N1C[C@H](C)[C@@H](CN(C)C(=O)C2CCCCC2)Oc2ncc(C#CCc3ccccc3)cc2C1=O	.	.	i	.	1	9	-0.6	.	-0.4
C[C@H](CO)N1C[C@H](C)[C@@H](CN(C)Cc2ccc(C(=O)O)cc2)OCCCC[C@H](C)Oc2ccc(NS(=O)(=O)c3cccs3)cc2C1=O	.	.	i	.	3	5	1.2	.	-2.8
O=C(CCC1COc2ccccc2O1)Nc1ccccn1 (centres undefined)	0.6	-5	.	0.75	.	.	.	2%	.
COc1ccc(Cn2nnnc2C(C(C)C)N2CCc3ccccc32)cc1 (centres undefined)	2.6	33	.	0.68	.	.	.	8%	.
CSCCC(NC(=O)c1ccco1)C(=O)N1CCCCCCC1 (centres undefined)	-3.7	1	i	0.73	7	5	1.3	-9%	3.8
CC(C)(CO)NC(=O)Nc1ccc(Cl)c(Cl)c1	2.2	-2	.	0.65	-12	-17	-5.8	.	-1.0
O=C(CN1CCN(c2ccc(Cl)cc2)CC1)Nc1cccc(F)c1	-2.1	25	.	0.67	.	.	.	16%	.

Bioassay records deposited in PubChem BioAssay by several laboratories.

Not all compounds are listed; the hit share may differ from the screen's.
